Mtb betalactam – beta-lactam sensitization of Mtb H37Rv. hit rate 0.27% among 330,000. inhibition, % at 25 µM. M. tuberculosis H37Rv growth with meropenem, percent inhibition; hits of this screen are not shown here;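 active = about 74% or more and at least 40 points above the plate without the antibiotic, then above 30% in a dose series; inconclusive = first-round hits that could not be retested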;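 note: growth measured after seven days incubation then overnight dye step; 0% = bacteria only wells and 100% = bacteria with antibiotic; twin plates without the antibiotic show which effects depend on it; some results filed as inactive read as strong as hits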
YopH inh – blocks Yersinia enterocolitica YopH tyrosine phosphatase; fluorescence Ex485/Em525; inhibition, %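 (about 10 µM by stock and volumes)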; hit rate 0.16% among 140,000; AID 898;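 active = inhibition of 50% or more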;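 note: controls were vehicle for no effect and minimum signal wells for full effect; inactives centre near -20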
Arbovirus inh – arbovirus infection inhibition | arbovirus infection cell-based antiviral screen | inhibition, % at 10 µM | hit rate 0.37% among 200,000;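 active = inhibition from about 30%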;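 note: bluetongue infection of BSR cells; cell survival read as ATP light after 72 h; 0% = infected wells without compound and 100% = uninfected wells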
RecA splice inh – inhibitors of M. tuberculosis RecA intein splicing; P9WHJ3; hit rate 0.75% among 290,000; cell-free RecA intein splicing, fluorescence; inhibition, %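 (about 9 µM by stock and volumes)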; AID 2221; in the data active = inhibition above about 30%; inconclusive = no clear call, values can overlap the other calls;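 note: 0% = vehicle wells and 100% = reference inhibitor control wells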
Target sequence (P9WHJ3 whole entry, looked up, canonical isoform): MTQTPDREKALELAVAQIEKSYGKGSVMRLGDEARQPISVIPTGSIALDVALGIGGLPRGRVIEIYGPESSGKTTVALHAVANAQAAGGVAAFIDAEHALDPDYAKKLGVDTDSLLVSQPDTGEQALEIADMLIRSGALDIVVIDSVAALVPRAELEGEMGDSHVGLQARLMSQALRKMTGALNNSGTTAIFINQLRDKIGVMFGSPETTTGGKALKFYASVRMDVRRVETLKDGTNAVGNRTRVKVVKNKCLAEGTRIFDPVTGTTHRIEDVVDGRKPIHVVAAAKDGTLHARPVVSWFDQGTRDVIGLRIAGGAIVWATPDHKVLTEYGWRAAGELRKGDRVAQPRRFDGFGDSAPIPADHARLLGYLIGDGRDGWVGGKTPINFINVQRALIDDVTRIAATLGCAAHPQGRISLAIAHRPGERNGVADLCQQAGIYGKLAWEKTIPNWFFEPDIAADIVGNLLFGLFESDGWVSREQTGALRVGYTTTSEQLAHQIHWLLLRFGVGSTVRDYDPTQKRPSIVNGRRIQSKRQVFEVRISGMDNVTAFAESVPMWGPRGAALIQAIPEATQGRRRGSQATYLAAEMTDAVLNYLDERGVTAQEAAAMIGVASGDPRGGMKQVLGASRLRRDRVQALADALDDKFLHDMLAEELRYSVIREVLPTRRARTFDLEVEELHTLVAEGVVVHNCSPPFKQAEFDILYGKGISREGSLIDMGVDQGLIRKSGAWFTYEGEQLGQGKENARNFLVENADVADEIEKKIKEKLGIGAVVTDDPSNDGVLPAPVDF
Mtb growth – M. tuberculosis H37Rv growth inhibitors, H37Rv strain (AID 1626); inhibition, % at 10 µM, or IC50 in µM where a hit was titrated; M. tuberculosis H37Rv growth inhibition; higher % means a stronger effect; hit rate 0.95% among 220,000;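 active = confirmed in a dose series; inconclusive = inhibition above 80% but not taken into the dose series; inactive = below 80% or under 30% at every dose of the series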;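 note: bacteria incubated seven days before Alamar blue readout; 0% = bacteria only wells and 100% = bacteria with antibiotic wells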
An asterisk follows results filed as active; ? = inconclusive; . = no result given; & = joins results of further samples.

nr | Molecule | Mtb betalactam | YopH inh | Arbovirus inh
1 | COc1ccc(NC(=O)N(C2CCCCC2)C(C)c2ccco2)c(OC)c1 (configuration not stated) | 9.2 | -42.4 | -20.1
2 | CC(=O)N/N=C(\C)CC(=O)Nc1cccc2c1CCCC2 | 2.1 | . | -2.7
3 | CC1=NN(C(=O)c2ccc(Cn3nc(C)cc3C)o2)C(O)(C(F)(F)F)C1 (configuration not stated) | 17.7 | -8.4 | -1.6
4 | CCNc1nc(NCC)nc(SCCOC(=O)COc2ccc(Cl)cc2Cl)n1 | 11.3 | -15.5 | -1.6
5 | Cc1ccc(S(=O)(=O)N2CCC(=O)N(CCOCc3cccc(Cl)c3)CC2)cc1 | -3.5 | -33.1 | -3.5
6 | COc1c2c(cc3c1C(CC(O)Cc1ccccc1)N(C)CC3)OCO2 (configuration not stated) | 4.4 | . | .
7 | CCN(CC)c1nc2c(s1)C(=O)CC(C)(C)C2 | -9.9 | -22.6 | 11.2
8 | Cc1ccc(-n2ncc3c(Nc4c(C)n(C)n(-c5ccccc5)c4=O)ncnc32)c(C)c1 | 3.4 | 6.5 | 4.2
9 | COc1cccc(OC)c1C(=O)NCCOc1cc(C)cc(C)c1 | -7.1 | . | .
10 | CN1CCN(NC(=O)CN2C(=O)/C(=C/c3c(Cl)cccc3Cl)SC2=S)CC1 | -5.0 | -22.2 | 15.3
11 | N/C(=N\OC(=O)c1cc(Cl)ccc1Cl)c1ccncc1 | 1.3 | . | -0.6
12 | Cc1c(C(=O)O)c2cc(O)ccc2n1-c1ccccc1 | -12.3 | -21.3 | -0.9
13 | COCCCn1c(=N)c(C(=O)NCc2ccc3c(c2)OCO3)cc2c(=O)n3ccccc3nc21 | -4.3 | -36.6 | -25.4
14 | Cc1cccc(NC(=O)Cc2c(F)cccc2Cl)n1 | -0.8 | . | .
15 | CN1CCN(C(=S)c2ccc(-c3cccc(Cl)c3Cl)o2)CC1 | -4.8 | -16.6 | 0.5

nr | RecA splice inh | Mtb growth
1 | 8.2 | 6.5%
2 | -1.4 | 1.2%
3 | -0.9 | 17.9%
4 | 6.3 | 6.1%
5 | 4.6 | -9.1%
6 | -0.4 | .
7 | -0.7 | 6.5%
8 | -1.4 | -0.7%
9 | 1.7 | .
10 | -1.4 | -3.5%
11 | 2.5 | -3.7%
12 | -4.7 | -7.8%
13 | -8.9 | -3.9%
14 | -4.4 | .
15 | 7.8 | 2.9%

(further entries)
nr | Molecule | Mtb betalactam | YopH inh | Arbovirus inh
16 | Cn1c(=O)c2c(nc(Br)n2Cc2ccc3ccccc3c2)n(C)c1=O | -4.1 | -28.7 | -0.5
17 | CCN(CC)C(=O)C1=C(C)NC(=S)NC1c1cn(-c2ccccc2)nc1-c1ccc(Cl)cc1 (configuration not stated) | 54.9 | -4.2 | -11.9
18 | NC(=O)[C@@H]1CCCCNc2c(F)cc([N+](=O)[O-])cc2C(=O)N[C@@H](CC(=O)O)C(=O)NCC(=O)N1 | -5.5 | -22.8 | -0.5
19 | COc1ccc(C2C3C=CCC(c4cccc(-c5ccc(C)cc5)c4)C3C(=O)N2Cc2ccccc2)cc1Cl (configuration not stated) | -8.8 | . | .
20 | Cc1cccc(N2C(=O)N3[C@H](c4ccc(Br)cc4)[C@@H]4C(=O)N(C(C)(C)C)C(=O)[C@@H]4[C@]3(C)C2=O)c1 | -6.3 | . | .
21 | Cn1c(=O)[nH]c(=O)c2c1nc(SCCCO)n2CCCc1ccccc1 | 1.4 | . | .
22 | CCn1c2ccccc2c2cc(NC(=O)c3ccc(Br)o3)ccc21 | 8.0 | -19.6 | -2.6
23 | CCn1cc([N+](=O)[O-])c(C(=O)N2CCOCC2)n1 | 0.1 | -25.2 | 4.7
24 | CS(=O)(=O)N1N=C(c2cccs2)CC1c1ccc(Cl)o1 (configuration not stated) | 55.4 | . | 2.3
25 | CCn1nc(C)c(C(=O)Nc2cc(Oc3cc(C)cc(C)c3)cc([N+](=O)[O-])c2)c1C | 98.7 | -21.6 | -30.6
26 | C=CCn1c(SCC(=O)Nc2cc3oc4ccccc4c3cc2OC)nnc1-c1cnccn1 | 9.7 | -51.9 | -2.0
27 | Cc1nc2cc(Cl)ccc2c(=O)n1Cc1ccncc1 | -1.4 | . | .
28 | CCOC(=O)c1cc(NCc2cccs2)ccc1N1CCOCC1 | -16.7 | . | -1.4
29 | COc1ccc(N2C(=O)C3CC=C(Cl)CC3C2=O)cc1 (configuration not stated) | -0.1 | -5.0 | 3.2
30 | COc1ccc(Cl)cc1NC(=O)CN1CCN(S(=O)(=O)N2CCC(C)CC2)CC1 | -7.5 | . | .

nr | RecA splice inh | Mtb growth
16 | 1.6 | 0.8%
17 | 5.4 | -0.1%
18 | 2.6 | -1.7%
19 | 5.5 | 8.6%
20 | 0.1 | .
21 | -1.1 | .
22 | 11.8 | -4.2%
23 | 0.2 | -0.6%
24 | 0.0 | -1.5%
25 | 7.9 | 36.4%
26 | 3.2 | -12.4%
27 | 0.7 | .
28 | -4.3 | -3.8%
29 | -0.4 | 2.9%
30 | 2.9 | .

Remaining list, next part:
nr | Molecule | Mtb betalactam | YopH inh | Arbovirus inh
31 | CC1(C)CC(=O)C(C=NCCN2CCN(C(=S)Nc3ccccc3)CC2)=C(O)C1 | -10.7 | -35.9 | 1.4
32 | CCN(CC)C(=O)Cn1cnc2sc(C(=O)NCCCN3CCOCC3)c(C)c2c1=O | -0.6 | . | .
33 | CCc1ccc(N(C(=O)c2csnn2)C(C(=O)NC2CCCCC2)c2ccncc2)cc1 (configuration not stated) | 1.3 | . | .
34 | Cc1ccccc1NC(=O)CN1C(=O)S/C(=C\c2ccc(-c3cccc(C(=O)O)c3C)o2)C1=O | 7.7 | . | -2.5
35 | COc1ccccc1-c1ccc(=O)n(CC(=O)NCc2ccco2)n1 | -7.1 | . | 0.6
36 | O=S(=O)(c1ccc(S(=O)(=O)N2CCN(Cc3ccccc3)CC2)cc1)N1CCOCC1 | . | -42.9 | 14.5
37 | Cc1cc(C)c(C#N)c(N2CCOCC2)n1 | -2.4 | -9.5 | 9.2
38 | CCOC(=O)c1ccc(S(=O)(=O)N2CCC(C(=O)OCC)CC2)cc1 | 1.9 | -5.2 | 8.0
39 | CCN(CC)C(=O)c1cc(-c2ccccc2OC)on1 | . | -43.6 | -0.5
40 | O=S(=O)(c1cccs1)N1CCCc2cccc(O)c21 | ? | -3.1 | 2.2
41 | COc1ccc(CC(=O)Nc2ccccc2Oc2ccccc2)cc1 | 3.2 | . | -1.6
42 | Cc1ccccc1C(=O)c1cccn1CC(=O)NCc1ccc(F)cc1 | -0.3 | . | .
43 | O=C(CSc1nnc(-c2cnccn2)n1Cc1ccco1)c1ccc(Cl)cc1 | -1.1 | -35.5 | 1.7
44 | CCCc1nc2c(C)ccc(C)c2c(N)c1CC | ? | -8.2 | 6.9
45 | CCc1c(C)sc(NC(=O)CN2CCN(C(=O)c3ccco3)CC2)c1C(=O)OC | 91.2 | . | .

nr | RecA splice inh | Mtb growth
31 | -3.5 | -1.0%
32 | -0.2 | .
33 | -2.1 | .
34 | -8.2 | 4.8%
35 | 0.9 | 0.1%
36 | -1.4 | -10.2%
37 | 1.1 | -4.1%
38 | -1.5 | -4.3%
39 | 1.1 | 1.3%
40 | 4.1 | -1.3%
41 | 4.8 | -6.5%
42 | -0.2 | .
43 | 9.3 | -1.0%
44 | -3.2 | -8.0%
45 | 6.2 | .

Next part
nr | Molecule | Mtb betalactam | YopH inh | Arbovirus inh
46 | CCOc1ccccc1NC(=S)N1CCN(c2ccc(OC)cc2)CC1 | 6.1 | . | .
47 | COc1ccc(-n2nnnc2SCC(=O)NC2CCCC2)cc1OC | -4.1 | . | .
48 | O=C(CN1CCOCC1)Nc1c(C(=O)C2CC2)oc2ccccc12 | 0.3 | . | -13.4
49 | Cc1ccc(S(=O)(=O)N(C)c2ccc(OCC(=O)N3CCCC(C(F)(F)F)C3)cc2)cc1 (configuration not stated) | -3.1 | . | .
50 | O=C(Nc1ccc([N+](=O)[O-])cc1)c1nc[nH]c1C(=O)NC1CCCCC1 | 3.7 | -34.3 | -12.1
51 | CC1CC(C)CN(C(=O)CSC2=Nc3ccccc3C3=NC(Cc4c[nH]c5ccccc45)C(=O)N23)C1 (configuration not stated) | 5.1 | -12.4 | -9.5
52 | Cc1cc(C)c(OCC(O)CNC(C)(C)C)c(C)c1 (configuration not stated) | 5.3 | . | -0.6
53 | CC(=O)N(NC(N)=O)C(C)CC(=O)C1C(C)C=CCC1(C)C (configuration not stated) | -7.5 | . | .
54 | CCOC(=O)c1ccc(S(=O)(=O)n2c(CN3CCCCC3)nc3ccccc32)cc1 | ? | -6.7 | 5.0
55 | Cc1ccnc2c1NC(=O)c1cccnc1N2C1CC1 | 8.2 | -20.8 | 7.0&4.8
56 | C=C(C)c1cccc(C(C)(C)NC(=O)Nc2ccc(C(N)=O)cc2)c1 | 1.2 | . | -0.4
57 | COc1cc(NC(=O)c2c(F)cccc2F)c(Cl)cc1Cl | 1.5 | . | -6.6
58 | CC1CN(S(=O)(=O)c2ccccc2)CN1C(=O)N1CCOCC1 (configuration not stated) | 7.5 | . | .
59 | CCOC(=O)c1ccc(Nc2cc(C)nc(-c3ccccc3)n2)cc1 | 5.7 | . | .
60 | CC(C)CCNCC1OCc2ccccc2CO1 | 1.9 | -34.2 | -4.6

nr | RecA splice inh | Mtb growth
46 | -0.7 | .
47 | 3.3 | .
48 | -0.2 | -0.2%
49 | 3.6 | .
50 | 1.1 | 62.4%
51 | 0.1 | -2.2%
52 | -1.4 | 3.9%
53 | . | -4.4%
54 | 0.2 | -2.1%
55 | 1.3 | 10.4%&4.0%
56 | . | -4.0%
57 | -1.1 | 2.6%
58 | -2.9 | .
59 | 1.9 | .
60 | 9.3 | 0.3%

Another view of 3 compounds above:
Under each structure – Mtb betalactam	YopH inh	Arbovirus inh	RecA splice inh	Mtb growth
#15 CN1CCN(C(=S)c2ccc(-c3cccc(Cl)c3Cl)o2)CC1
  -4.8	-16.6	0.5	7.8	2.9%
#52 Cc1cc(C)c(OCC(O)CNC(C)(C)C)c(C)c1 (configuration not stated)
  5.3	.	-0.6	-1.4	3.9%
#2 CC(=O)N/N=C(\C)CC(=O)Nc1cccc2c1CCCC2
  2.1	.	-2.7	-1.4	1.2%

Other records follow.
nr | Molecule | Mtb betalactam | YopH inh | Arbovirus inh
61 | CCN(CC)CCOC(=O)c1c(C)n(C)c2ccc(OC)cc12 | -14.7 | -47.2 | 7.0
62 | CCOc1ccccc1-c1cc(C(=O)N2CCOCC2)c2ccccc2n1 | -8.5 | . | .
63 | N#CCC(=O)N1CCN(Cc2ccc3c(c2)OCO3)CC1 | -1.3 | . | .
64 | COc1ccc(C)cc1NS(=O)(=O)c1ccc(NS(=O)(=O)c2ccc(NC(C)=O)cc2)cc1 | -0.4 | -22.3 | 7.0
65 | NC(=O)c1cccnc1Oc1cccc(Cl)c1 | -0.7 | -13.8 | -9.8
66 | CCCCc1nc(SCC(=O)N2CCCC2)c2c(=O)n(C)c(=O)n(C)c2n1 | 4.3 | . | .
67 | CSc1ccc(-c2ccco2)nn1 | -3.4 | . | 4.2
68 | COc1cc(C(=O)Nc2ccc(Br)cc2C(=O)c2ccccc2Cl)cc(OC)c1OC | -3.3 | -49.5 | -11.7
69 | COc1ccccc1NC(=S)NNC(=O)c1nn(C)c(C)c1Br | 3.2 | -17.8 | -6.5
70 | CCCc1cc(=O)oc2cc(C)cc(OCC(=O)O)c12 | -5.9 | -16.8 | 4.0
71 | COC(=O)[C@@H]1C[C@H]1[C@@H](NC(=O)c1cc(C)on1)c1ccccc1 | -1.9 | . | .
72 | COc1cc(O)c(C(CC(=O)N2CCN(c3ccccc3)CC2)c2cc(OC)c(OC)c(OC)c2)c(OC)c1 (configuration not stated) | -1.1 | . | .
73 | O=C(N/N=C/C=C\c1ccco1)c1cccnc1 | 1.4 | 2.1 | 1.8
74 | Cc1occc1C(=O)NNC(=O)c1nn(C)c(=O)c2ccccc12 | 7.5 | . | 4.7
75 | CCOC(=O)CC1C(=O)NCCN1C(=O)c1ccc(Cl)cc1Cl (configuration not stated) | -6.2 | . | .

nr | RecA splice inh | Mtb growth
61 | -2.1 | -4.8%
62 | -4.4 | .
63 | -0.1 | .
64 | -0.6 | -9.9%
65 | -9.1 | 2.8%
66 | -1.8 | .
67 | -1.3 | .
68 | -4.6 | 6.2%
69 | 0.4 | -2.9%
70 | -4.5 | -0.5%
71 | -1.7 | -10.3%
72 | 1.1 | -1.6%
73 | 3.1 | 4.8%
74 | 2.1 | 0.2%
75 | 0.7 | .

Bioassay records deposited in PubChem BioAssay by several laboratories.

An excerpt; count on the stated rates, not on these rows.
